Bfl-1 A1 inh = caspase 3/7 activation in MEF A1-2A-BIM cells, primary screen, A1 inhibitor project, cell-based, luminescence, HTS; caspase activation, % (no concentration beside the values); Caspase-Glo 3/7 luminescence, 3 h; percent of clofoctol response, vehicle zero; actives 0.066% (n = 330,000); AID 2462, 2010;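 active = over half of replicate activation scores above 10%, or exactly half above 10 with the replicate mean above 10; inconclusive = replicate mean below 10 yet half the replicates above 10; inactive = over half of replicates below 10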;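 also: wells of about 30 µL received 50 nL stock; many hits fall short of the cut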
LANA-H2A inh = blockers of LANA interaction with H2A/H2B – biochemical, FP readout, HTS, primary screen | Protein LANA1 (Human herpesvirus 8 type P (isolate GK18)), Q9QR71 | cell-free LANA-H2A/H2B peptide, fluorescence polarization | inhibition, % (concentration not given with the values) | actives 0.6% (n = 320,000); in the data active = inhibition mostly above about 10%, no sharp cut-off; inactive = mostly below about 6.7%;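 also: stock transfer was 7.5 nL into about 10 µL; 0% = median of vehicle wells and 100% = median of positive control wells; one replicate is shown; the record names a cut of 25% in any replicate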
Target sequence (Q9QR71 whole entry, looked up): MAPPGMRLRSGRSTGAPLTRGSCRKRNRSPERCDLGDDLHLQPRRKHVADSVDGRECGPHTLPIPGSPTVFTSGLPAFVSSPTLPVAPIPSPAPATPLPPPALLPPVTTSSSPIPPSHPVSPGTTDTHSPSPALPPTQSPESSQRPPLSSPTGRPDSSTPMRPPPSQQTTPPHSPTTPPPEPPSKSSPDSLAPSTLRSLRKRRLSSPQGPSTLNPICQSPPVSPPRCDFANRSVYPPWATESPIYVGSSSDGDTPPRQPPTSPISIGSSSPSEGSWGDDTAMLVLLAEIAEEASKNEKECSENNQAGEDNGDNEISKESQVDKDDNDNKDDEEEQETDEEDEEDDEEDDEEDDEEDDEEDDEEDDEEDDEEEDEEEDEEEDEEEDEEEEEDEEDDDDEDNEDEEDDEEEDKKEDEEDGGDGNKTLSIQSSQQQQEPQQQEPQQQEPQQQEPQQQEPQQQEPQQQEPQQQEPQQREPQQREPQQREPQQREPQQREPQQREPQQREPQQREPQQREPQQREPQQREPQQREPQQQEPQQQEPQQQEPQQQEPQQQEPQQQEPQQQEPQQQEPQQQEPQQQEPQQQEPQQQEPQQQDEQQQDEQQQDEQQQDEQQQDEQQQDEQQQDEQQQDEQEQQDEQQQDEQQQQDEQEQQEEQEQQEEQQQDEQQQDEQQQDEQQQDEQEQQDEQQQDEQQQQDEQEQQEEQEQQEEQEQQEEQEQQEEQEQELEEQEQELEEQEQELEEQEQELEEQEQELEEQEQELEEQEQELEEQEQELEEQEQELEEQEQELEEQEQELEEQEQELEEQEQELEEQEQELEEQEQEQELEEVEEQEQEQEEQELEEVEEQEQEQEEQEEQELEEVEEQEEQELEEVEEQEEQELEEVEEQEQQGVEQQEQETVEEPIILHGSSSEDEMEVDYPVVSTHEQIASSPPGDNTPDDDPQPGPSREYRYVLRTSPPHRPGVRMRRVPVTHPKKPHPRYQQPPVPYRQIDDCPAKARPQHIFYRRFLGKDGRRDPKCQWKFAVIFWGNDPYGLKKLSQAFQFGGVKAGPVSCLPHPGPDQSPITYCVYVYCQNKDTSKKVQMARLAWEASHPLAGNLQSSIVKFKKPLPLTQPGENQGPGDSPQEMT
Vif TR-FRET = inhibitors of Vif binding to APOBEC3G peptide, primary screen, biochemical, TR-FRET, GST-Vif 1-94, biotin-A3G peptide, dose response retest (AID 1117319) | actives 0.57% (n = 260,000) | Virion infectivity factor (Human immunodeficiency virus type 1 group M subtype B (isolate … | TR-FRET GST-Vif / biotin-A3G peptide binding; higher % means a stronger effect; test concentration not given here; strong numbers were not always called active | one-dose inhibition, %; IC50 in µM for titrated hits;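 active = above the screen mean plus three standard deviations and confirmed in dose response; inconclusive = results disagree or hit not tested in dose response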;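 also: Vif residues 1-94 fused to GST binding biotinylated APOBEC3G peptide 110-148; 0% = full assay without inhibitor and 100% = GST in place of GST-Vif; retest series ran down from 100 µM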
Ecoli growth = E. coli growth inhibition, primary screen, OD600. OD600 absorbance (concentration not given with the values). Escherichia coli growth, 23 h; active compounds read low. actives 0.21% (n = 330,000);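 active = OD600 absorbance below the run mean of sample wells minus 3.6 SD, in any replicate, cut at about 0.56 in these data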;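 also: stock transfer was 300 nL into about 60 µL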
Beta2AR agonist = beta2AR agonists driving receptor internalization, primary screen, cell-based, FAP fluorogen, flow cytometry | Beta-2 adrenergic receptor (Homo sapiens), P07550 | Am2.2-beta2AR cells; reference of the scale not given here | response, % (test concentration not listed) | actives 0.43% (n = 340,000);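 active = response above a set limit, near 3 SD of response in nonfluorescent compounds, cut at about 42% in these data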;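 also: stock transfer was 100 nL into about 11 µL; a reference agonist was the positive control; negative values mostly stem from fluorescent compounds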
UCH37 DUB inh = inhibitors of human UCH37 deubiquitinase, primary screen, biochemical, Ub-AMC cleavage, fluorescence. actives 0.33% (n = 330,000). purified proteasome/UCH37. inhibition, % (test concentration not listed);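 active = mean of two replicates above 20%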;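 also: 0% = compound-free wells with enzyme and 100% = wells lacking proteasome; stock transfer was 100 nL into about 20 µL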
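Assay system: Proteasome-bound UCH37. Buffer or medium: pH 7.4 Tris-HCl (50 mM) with ovalbumin, ATP-MgCl2, DTT. Incubation: 30 min preincubation with enzyme, 25 min cleavage at room temperature. Measured by: fluorescence, ex 355 nm, em 460 nm. Read-out basis: percent inhibition. Control set: wells without proteasome as full block, compound-free enzyme plus substrate as uninhibited.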
HNF4A DNA FP = change in binding of human HNF4A to DNA, primary screen, biochemical, fluorescence polarization, FITC-DNA. activity change, % at 10 µM. Hepatocyte nuclear factor 4-alpha (Homo sapiens), P41235. actives 0.3% (n = 360,000). AID 1224865, 2016. 1 h; in the data active = activity change above about 30%, passing the limit was not always enough;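 also: controls were the assay level and a saturating level of protein; the project sought stronger binding though the title names inhibitors; some compounds called inactive have numbers as strong as hits; positive values seem to mean higher polarization but the record does not say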
Numbers without * were called inactive; u = inconclusive; x = not tested or not shown; & = joins results of further samples.

SMILES	Bfl-1 A1 inh	LANA-H2A inh	Vif TR-FRET	Ecoli growth	Beta2AR agonist	UCH37 DUB inh	HNF4A DNA FP
CCn1nnnc1SCC(=O)Nc1sc(C)c(C)c1C#N	-0.1	2.4	1.9%	0.696	-5.8	3.5	-2.4
CN(CCc1ccccc1)C(=O)c1cccc(NC(=O)Cc2cccc(NC(=O)C3CCN(C(=O)c4ccccc4)CC3)c2)c1	x	x	1.9%	x	-15.2	x	7.4
COc1cccc2sc(N3CCN(c4nc5ccccc5s4)CC3)nc12	1.2	-2.4	-0.5%	0.75	7.7	5.2	-1.6
COc1ccccc1N1CCN(CCCCOc2c(OC)cccc2OC)CC1	0.5	-2.4	-7.0%	0.677	-6.3	-0.5	0.6
O=C(CN(c1ccc(F)cc1)S(=O)(=O)c1ccc2c(c1)OCCO2)Nc1ccccc1	-0.8	0.8	u	0.677	-2.9	1.5	-2.3
CCOC(=O)Cc1csc(NC(=O)COc2ccc(N(C)S(=O)(=O)c3cccs3)cc2)n1	0.0	3.6	0.1%	0.714	6.9	0.5	0.0
O=C(O)C1C2C=CC(C2)C1C(=O)NCc1ccccc1 (stereo unspecified)	0.3	-1.8	x	0.676	0.4	0.0	0.5
O=S(=O)(c1ccccc1)N1CCN(Cc2cccc(Cl)c2)CC1	2.0	-2.1	24.2%	0.701	-4.2	0.2	1.1
CNc1oc(Cc2ccccc2)nc1S(=O)(=O)c1ccc(Cl)cc1	-0.2	4.0	u	0.654	5.7	1.8	5.1
COc1ccc(OC)c(NC(=O)CC2(CC(=O)O)CCCC2)c1	0.9	19.5*	x	0.707	4.7	0.7	1.2
COC(=O)CCCC(=O)N1CCCC(C(=O)c2ccc(-c3ccccc3)cc2)C1 (stereo unspecified)	-0.8	-3.2	x	0.647	8.9	4.7	0.8
O=C(Nc1nnc(C2CC2)s1)c1ccncc1	-0.5	1.4	5.4%	x	-0.4	x	-3.3
COc1ccc(C2(c3ccc(OC)cc3)NC(=O)N(CC(=O)N3CCOCC3)C2=O)cc1	0.1	-6.2	x	0.686	-0.7	-3.4	-1.7
Cc1ccc(S(=O)(=O)N(CC(=O)NCc2ccco2)Cc2ccccc2F)cc1	x	x	7.5%	0.711	-0.1	6.8	2.2
Brc1ccc2ncc(Br)cc2c1	-0.5	-1.4	-10.8%	0.644	-4.9	2.3	2.2
CCOc1ccc(N(C(=O)c2snc(C(N)=O)c2N)C(C(=O)NCC2CCCO2)c2c[nH]c3ccccc23)cc1 (stereo unspecified)	-0.2	3.7	x	0.691	-0.6	-13.9	4.0
COc1ccc(-c2csc3nc[nH]c(=O)c23)cc1OC	1.1	-4.0	-5.1%	0.657	9.2	-0.1	-1.2
Cc1ccc(OCC(=O)NC(=S)Nc2cccc(C)n2)cc1	0.3	1.6	x	0.696	1.1	1.4	0.3
CC(C)(C)NC(=O)NC(=O)CSc1nnc2ccccn12	0.5	3.6	5.4%	0.69	1.5	4.5	-0.1
CCCCN1C(=O)C(CC(=O)NCC)SC1=Nc1ccccc1 (stereo unspecified)	0.3	-0.3	1.5%	0.649	-2.3	2.4	2.7

Entries above with a COOH group, in the order listed:
SMILES	Bfl-1 A1 inh	LANA-H2A inh	Vif TR-FRET	Ecoli growth	Beta2AR agonist	UCH37 DUB inh	HNF4A DNA FP
O=C(O)C1C2C=CC(C2)C1C(=O)NCc1ccccc1 (stereo unspecified)	0.3	-1.8	x	0.676	0.4	0.0	0.5
COc1ccc(OC)c(NC(=O)CC2(CC(=O)O)CCCC2)c1	0.9	19.5*	x	0.707	4.7	0.7	1.2

Other structures.
SMILES	Bfl-1 A1 inh	LANA-H2A inh	Vif TR-FRET	Ecoli growth	Beta2AR agonist	UCH37 DUB inh	HNF4A DNA FP
Cc1cc(Cl)ccc1C(=O)C1CCCN(C(=O)c2n[nH]c3c2CCCC3)C1 (stereo unspecified)	-0.2	-0.8	3.0%	0.684	15.2	-0.2	1.6
CCOc1ccc(-c2ccc(SCC(=O)NC3CCCCC3)nn2)cc1	1.3	2.5	x	0.67	6.3	1.2	-0.6
Cc1ccc(OC(=O)CCC(=O)Oc2ccc(C)cc2C)c(C)c1	x	x	1.2%	0.706	1.1	6.0	3.6
O=C(Cc1cccs1)Nc1nncs1	0.7	-0.7	0.4%	0.709	-1.6	1.0	1.9
Cc1ccc(S(=O)(=O)Nc2nc(C)c(NC(=O)OCCCl)s2)cc1	1.1	3.3	15.4%	0.625	-2.2	1.1	2.2
Cc1ccc(CS(=O)Cc2ccc(C(=O)NC3CCCCCC3)o2)cc1 (stereo unspecified)	-0.1	-1.9	-7.9%	0.693	-2.9	3.4	0.6
O=[N+]([O-])c1ccc(-c2ccc(S(=O)(=O)NCCN3CCCC3)cc2)cc1	0.2	2.5	4.7%	0.708	7.8	4.4	2.6
O=C(c1ccc(N2CCCC2=O)cc1)N1CCN(c2ccccc2)CC1	-1.2	1.2	u	0.642	-14.0	1.6	-2.7
CCOC(=O)CC1OC(=O)c2cc3c(cc21)C(=O)OC3CC(=O)OCC (stereo unspecified)	-0.7	1.3	-7.4%	0.684	0.8	3.8	-2.5
CC1(C)CC(=O)C(C=NCCN2CCN(C(=O)C34CC5CC(CC(C5)C3)C4)CC2)=C(O)C1	0.8	-1.0	x	0.717	1.8	2.5	-0.6
Nc1c(N(CCO)C(=O)C2CCCC2)c(=O)[nH]c(=O)n1Cc1ccccc1	0.3	1.3	x	0.698	0.4	3.4	0.5
CCN(CC(=O)Nc1ccc2c(c1)OCCO2)C(=O)CCc1ccc(OC)cc1	x	x	-3.3%	0.698	1.0	3.6	2.3
O=C(NNc1ccccn1)c1ccccc1CC[N+](=O)[O-]	-0.4	-0.6	8.3%	0.657	-5.9	0.2	-3.0
Cc1ccc(C(=O)O/N=C2\CC3CCC2(C)C3(C)C)cc1 (stereo unspecified)	0.2	-0.9	-0.8%	x	-5.7	x	1.2
C=CCn1c(SCc2nc3c(c(=O)[nH]c(=O)n3CCCC)n2CCC)nnc1-c1ccccc1	0.8	-0.8	9.9%&-8.2%	0.697	1.4	29.4*	-0.7
Nc1ncnc2c1nc(Sc1ccc(Cl)cc1)n2[C@@H]1O[C@@H]2COP(=O)(O)O[C@H]2[C@H]1O	0.5	0.7	x	x	-6.0	0.4	0.9
CC(=O)c1cn(-c2ccc(Cl)cc2)c(=O)[nH]c1=O	0.6	-5.9	1.6%	0.695	-8.2	3.5	3.3
Oc1cccc(/C=N/N2CCN(c3ccccn3)CC2)c1	-2.0	2.9	3.5%	x	3.5	x	-1.7
Cn1c(O)c(N=NC(=O)Cc2c[nH]c3ccccc23)c2ccccc21	x	x	4.0%	x	-9.3	x	1.8
Cc1ccccc1SCC(=O)N1CCN(c2ccc(C(F)(F)F)cn2)CC1	0.0	-2.1	6.7%	0.675	-12.8	-18.4	-0.2
C=CCc1cc(Cl)ccc1OCCOCCNC(C)CC (stereo unspecified)	0.7	-0.4	-8.3%	0.686	3.4	3.3	3.5
CC1CC(C)(C)CC2(C1)NC(=O)N(CC(=O)NC1CCCc3ccccc31)C2=O (stereo unspecified)	0.1	-5.7	x	0.703	2.7	2.4	2.0
COc1ccc(S(=O)(=O)N2CCC(C(=O)N3CCCCC3)CC2)cc1	-0.2	1.9	-5.1%	0.634	-6.4	0.6	1.1
O=C(NCc1cccs1)C1CC(=O)N(c2ccc(F)cc2)C1 (stereo unspecified)	2.3	0.9	-6.2%	0.707	3.4	0.5	0.7
CN(Cc1ncc[nH]1)C(=O)CC1C(=O)NCCN1Cc1c(F)cccc1Cl (stereo unspecified)	-0.2	4.0	-5.3%	0.699	0.9	3.1	-5.1
C/C(=N\NC(=O)Cc1ccc(Cl)cc1)c1cccc(NC(=O)c2cccnc2)c1	-0.7	6.3	x	x	-3.2	x	-1.5
CCOc1ccc(NC(=O)c2ccccc2SC)cc1	-2.6	0.6	x	0.706	0.2	4.6	0.1
O=C(c1ccccn1)N1CCN(C(=O)c2ccccn2)CC1	-1.1	3.8	-7.0%	0.611	13.9	-0.3	0.9
COc1ccc(N2C(=O)c3ccccc3S2(=O)=O)cc1	-0.8	-4.1	-0.4%	0.733	-1.6	3.4	0.0
CCCC1(CCC)NC(=O)N(CC(=O)Nc2ccc(Cl)c(S(=O)(=O)N3CCOCC3)c2)C1=O	-0.4	-2.9	-0.8%	0.713	8.4	4.6	-0.3
COc1ccc(CNC(=O)c2cnc(C)cn2)c(OC)c1	0.3	0.6	-1.6%	0.721	7.2	1.7	-1.1
S=C(Nc1ccccc1Oc1ccccc1)Nc1cccc(Cl)c1Cl	0.4	8.2	x	0.679	7.2	5.0	6.0
COc1ccc(C(=O)NC2CCCCCC2)cc1S(=O)(=O)N1CCCc2ccccc21	1.1	3.2	-1.8%	0.728	1.5	3.8	-1.5
CC(C)NC(=O)CC(=O)N/N=C/c1c(F)cccc1Cl	-0.4	3.8	-9.8%	x	3.5	x	-0.2
CN1CCN(Cc2nc3c([nH]2)c(=O)[nH]c(=O)n3C)CC1	-0.9	-5.9	27.4%	0.645	4.2	-0.9	0.1
COc1cccc(N(CC(=O)NC2CCCC2)C(=O)CCC(=O)Nc2nccs2)c1	0.0	-6.6	x	0.685	-2.6	1.2	3.5
CCOC(=O)c1ccccc1NCN1C(=O)CSC1=O	-1.1	-3.1	-4.7%	0.691	-0.9	-35.8	-0.8
Cc1occc1C(=O)Nc1sc2c(c1C(N)=O)CCCCC2	1.0	6.2	18.8%	0.727	4.5	-7.4	-0.6
COc1cccc(NC(=O)c2ccccc2NC(=O)c2ccncc2)c1	0.3	0.5	x	0.685	-3.7	2.5	1.3
COc1ccc(C2CCCN2C(=O)Nc2ccc(C)c(C)c2)cc1OC (stereo unspecified)	0.4	-5.2	-2.3%	0.748	8.0	5.3	0.0
Cc1ccc(-c2nnc(SCC(=O)CC(=O)Nc3ccccc3)n2C)cc1	0.5	-10.1	x	0.682	0.7	-1.2	1.0
C=CCNC(=O)N1CCCC(N2CCN(c3ccccc3OC)CC2)C1 (stereo unspecified)	0.9	-2.2	x	0.66	-2.4	-0.4	-0.8
Cc1ccccc1/C=C/c1cc[n+](C)cc1	0.3	2.6	16.0%	0.706	-3.3	-2.1	0.9
Cc1ccc(C)c(N(C(=O)Cn2nnc(-c3cccs3)n2)C(C(=O)NC2CC2)c2ccc(C)o2)c1 (stereo unspecified)	-0.3	-2.5	0.0%	0.67	-0.9	3.6	-2.6
CNc1cccnc1C=NNC(N)=S	x	x	9.6%	x	8.6	x	-3.5
CS(=O)(=O)c1nc(S(=O)(=O)c2ccc(Cl)cc2)c(N2CCC3(CC2)OCCO3)s1	2.2	-4.8	-8.0%	0.723	-2.6	3.6	1.7
Cc1cc(C)n(CC2CC(=O)N(c3ccc(Cl)cc3)C2=O)n1 (stereo unspecified)	1.2	3.8	-0.7%	0.697	11.2	0.7	1.8
COc1cc(OC)c(-c2nc3c[n+](CC(=O)c4ccccc4)ccc3n2C)cc1OC	0.8	-6.2	1.0%	0.668	-2.8	8.0	0.9
CC(C)(C)OC(=O)N1CCC(NC(=O)c2nc[nH]c2C(=O)N2CCN(C(=O)OC(C)(C)C)CC2)CC1	0.1	-0.9	x	0.703	-8.0	-1.9	1.9

Outcome played no part in choosing rows, and some 2.1% of all compounds hit somewhere here.
